High-throughput results: PubChem BioAssay, several laboratories
BJeLR viability: kills HRASV12-expressing BJeLR cells | inhibition, % (test concentration not listed) | AID 1554 | BJeLR (HRASV12) viability, CellTiter-Glo ATP luminescence, 48 h; reference of the scale not given here | 300,000 compounds, 0.17% hits;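 active = replicate mean above 50%; inconclusive = above 50% but judged a plate artefact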;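 also: 50 nL library stock added to about 25 µL; numbers are from one replicate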
Autofluor counter: compound fluorescence in toxin protease inhibitor counterscreen; compound autofluorescence counterscreen, microsphere flow cytometry; stronger effect = higher value; fluorescence intensity (no concentration beside the values); 360,000 compounds, 3.1% hits;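 active = at least 3 SD above the mean of all compounds, about 16000 in these data; inconclusive = too few beads counted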;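 also: 100 nL of 1 mM stock went into each well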
Sa RN4220 lethal: S. aureus RN4220 growth inhibition; OD600, 16 h; inhibition, % (concentration not given with the values); 330,000 compounds, 0.33% hits;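 active = z-score of -3 or lower and OD600 up to 0.18 on both plates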;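 also: plate controls were untreated cells for no effect and reference antibiotic for full effect; stock transfer was 100 nL into about 80 µL; one replicate is shown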
Mtb hypoxia inh: reduces hypoxia-regulated biosensor signal in M. tuberculosis; M. tuberculosis hypoxia-regulated fluorescent reporter, fluorescence; fluorescence inhibition, % (concentration not given with the values); 300,000 compounds, 0.1% hits;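 active = 35 to 45% if threefold the growth effect, above 45% if 1.5-fold the growth effect; inactive = the rest, general growth blockers included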;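 also: wells of about 50 µL received 100 nL stock; 0% = vehicle wells and 100% = reference inhibitor wells; whole bacteria with a GFP reporter of the hypoxia response; strong numbers were not always called active; many hits fall short of the cut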
PrP UTR inh: inhibition of PrP 5' UTR reporter expression; cell-based PrP 5' UTR mRNA reporter, plate reader; inhibition, % (no concentration beside the values); 340,000 compounds, 0.35% hits;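 active = every replicate at 50% or more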;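 also: 0 = median of the neutral control wells; tested in H4 reporter cells; numbers are from one replicate; inactives centre near -14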
Sa ugtP lethal: kills S. aureus RN4220 lacking UgtP; S. aureus RN4220 ugtP deletion, OD600 growth, 16 h; some inactives read as strong as hits; growth inhibition, % (test concentration not listed); 330,000 compounds, 0.54% hits;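 active = z-score under -3 and OD600 up to 0.15 on both plates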;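 also: plate controls were untreated wells for no effect and antibiotic for full effect; wells of about 80 µL received 100 nL stock; the first replicate is given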
Mtb hypoxia inh growth: second read-out of Mtb hypoxia inh, no call of its own (marks repeat the call); growth inhibition, %; measured here: M. tuberculosis growth (absorbance);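 0% = vehicle and 100% = reference antibiotic; read after six days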
An asterisk follows results filed as active; ? = inconclusive; . = not tested or not shown.

Preview (5 entries):
SMILES	BJeLR viability	Autofluor counter	Sa RN4220 lethal	Mtb hypoxia inh	Mtb hypoxia inh growth	PrP UTR inh	Sa ugtP lethal
COc1ccccc1-c1cc(N)n(S(=O)(=O)c2ccc(F)c(C)c2)n1	6	5780	3.8	8	7	-5	4
COc1ccc(S(=O)(=O)N2CCSCC2)cc1	-8	3348	2.3	2	4	-6	5
Cc1cc(C)n(C(N)=NC(=O)c2ccc([N+](=O)[O-])cc2)n1	-6	3551	4.3	16	11	-35	2
O=C(CON=Cc1ccccc1)Nc1c(F)c(F)c(F)c(F)c1F	.	.	-0.8	5	3	.	4
Cc1ccc(NC(=O)c2ccccc2SCC(=O)N2CCCC2)cc1S(=O)(=O)N(C)C	-7	5724	1.0	4	7	-17	2

This part in full (from the top)
SMILES	BJeLR viability	Autofluor counter	Sa RN4220 lethal	Mtb hypoxia inh	Mtb hypoxia inh growth	PrP UTR inh	Sa ugtP lethal
COc1ccccc1-c1cc(N)n(S(=O)(=O)c2ccc(F)c(C)c2)n1	6	5780	3.8	8	7	-5	4
COc1ccc(S(=O)(=O)N2CCSCC2)cc1	-8	3348	2.3	2	4	-6	5
Cc1cc(C)n(C(N)=NC(=O)c2ccc([N+](=O)[O-])cc2)n1	-6	3551	4.3	16	11	-35	2
O=C(CON=Cc1ccccc1)Nc1c(F)c(F)c(F)c(F)c1F	.	.	-0.8	5	3	.	4
Cc1ccc(NC(=O)c2ccccc2SCC(=O)N2CCCC2)cc1S(=O)(=O)N(C)C	-7	5724	1.0	4	7	-17	2
CC(C)CC(=O)Nc1ccc(C(=O)CN2CCC(C)CC2)cc1	0	5854	1.6	7	-4	-19	-2
Fc1cccc(Cl)c1CSc1nnc2ccccn12	4	4950	3.6	-10	-9	-36	-12
O=C(COCc1ccccc1)N[C@@H]1c2ccccc2CC[C@@H]1OCc1ccccc1	.	3847	6.3	-11	-4	-15	-7
COc1ccc(N(CC(=O)NC2CCCCC2C)S(=O)(=O)c2c(C)nn(C)c2C)cc1 (configuration not stated)	4	5734	-8.6	3	2	-11	-3
CCOC(=O)N1CCN(S(=O)(=O)c2ccc(OCC)c(C)c2)CC1	3	2116	0.1	.	.	6	3
CCOC(=O)C1(CCCc2ccccc2)CCN(C2CCN(C(C)=O)CC2)CC1	0	5343	2.5	1	-1	2	-8
Cc1ccnc(NS(=O)(=O)c2ccc(NC(=O)Cc3ccccc3)cc2)n1	-6	1974	4.4	7	2	-17	4
O=C(Nc1ccc(Cl)cc1)OCc1cn(-c2ccc(Cl)cc2)nn1	0	5648	5.6	5	10	-19	2
CN1N=C(C(C)(C)C)CSC1=Nc1ccc(F)cc1	0	3563	1.6	4	-1	-41	10
CCOc1ccc(C2SCC(=O)Nc3c2c(=O)[nH]n3C2CCCCCC2)cc1 (configuration not stated)	4	24510*	1.5	4	-2	-10	14
CCCS(=O)(=O)c1nc(S(=O)(=O)c2ccc(Cl)cc2)c(N2CCC(O)CC2)s1	0	5228	0.5	6	16	-23	-1
CC(=O)NC(=S)Nc1ccc([N+](=O)[O-])cc1C	-4	4435	-1.9	8	24	-44	-18
Cc1cc(C)nc(NC(=O)c2ccc(Cl)c(Cl)c2)n1	0	2657	0.2	.	.	-15	-1
COc1ccc(NC(=O)Cn2c(=O)n(CC(=O)NCc3ccco3)c(=O)c3ccccc32)cc1OC	-8	9132	0.8	10	5	-15	-4
CC(C)CNC(=O)CCCSc1nc2ccccc2[nH]1	1	4382	2.6	13	7	-20	5
COc1cccc(CNc2ccc3c(c2)nc(C)n3C)c1OC	-4	3677	4.3	19	22	-36	7
Cc1ccc(S(=O)(=O)NCC(=O)OC(C)C(=O)Nc2ncc(Cl)cc2Cl)cc1 (configuration not stated)	-4	9616	3.7	10	2	.	6
O=C(COC(=O)c1c[nH]c(=O)[nH]c1=O)Nc1ccccc1	0	2399	1.6	4	-1	-6	5
CCCNC(=O)Cc1c(C)oc2ccccc12	4	3254	4.6	12	8	-25	1
CCCc1cc2c(cc1NC(=O)Cc1ccccc1)OCO2	.	3064	3.4	23	6	5	12
O=C(Nc1ccc(-c2nc3ncccc3o2)cc1)c1ccc([N+](=O)[O-])o1	-9	6027	.	.	.	-18	.
Cc1ccc(C(=O)OCC(=O)Nc2c(C)n(C)n(-c3ccccc3)c2=O)cc1[N+](=O)[O-]	1	4053	4.0	10	3	-23	1
Cc1nnsc1C(=O)NC1CCCc2c1cnn2-c1ccc(C(C)(C)C)cc1 (configuration not stated)	13	5089	-9.4	11	8	-11	-13
Cc1ccc(C(=O)NCc2ccc3c(c2)OCO3)cc1Cl	-17	4050	1.3	.	.	-11	6
Cn1c(=O)cc(OCCCC(=O)N2CCN(Cc3ccc4c(c3)OCO4)CC2)c2ccccc21	3	9007	3.6	-5	13	-5	-3
CC(=O)Nc1ccc(N/C=C/C(=O)c2ccccc2)cc1	17	4096	1.8	2	5	-96	10
Cc1cc(C)cc(NS(=O)(=O)c2c(C(=O)N3CCCCCC3)c(C)n(C)c2C)c1	13	5456	2.7	12	2	-4	0
Nc1nc(/C=C/c2cccnc2)nc(-c2ccccc2O)n1	15	3415	22	-4	-5	18	8
O=C(NCCc1csc(-c2ccc(C(F)(F)F)cc2)n1)c1cccs1	-1	5348	-0.2	1	5	-6	3
Cc1ccc(-n2nnnc2SCC(=O)c2cc(C)n(-c3cc(C)on3)c2C)cc1	8	8030	5.2	-3	2	0	10
CC(C)CNc1nc(Oc2ccc(=O)n(C)n2)nc(N2CCOCC2)n1	-3	2687	-0.1	.	.	-6	1
CCCN1C(=O)/C(=C/c2ccc(C)s2)SC1=Nc1ccc(OC)cc1	9	3101	.	.	.	-1	.
Cc1c(C(=O)N(CCC#N)c2ccccc2)sc2nc3n(c(=O)c12)CCCC3	3	6155	1.0	14	1	-13	0
CCOC(=O)c1c(C(C)(C)C)oc2ccc(O)cc12	.	2505	2.5	7	9	-7	6
CC(C)c1nnc2n1N=C(c1ccc(Cl)cc1)CS2	3	4084	6.7	-12	-1	-18	0
COc1ccc(Cl)cc1S(=O)(=O)NC(C)C(=O)NCc1cccnc1 (configuration not stated)	2	3506	2.8	15	5	-17	2
O=C(CCCn1c(=S)[nH]c2ccsc2c1=O)Nc1ccc2c(c1)OCO2	-7	4445	-0.7	-7	2	-3	4
Cc1sc(Nc2ccc([N+](=O)[O-])cc2)nc1-c1c(C)n(C)n(-c2ccccc2)c1=O	-7	4523	5.8	8	11	-22	3
CC1=C(C(=O)Nc2ccccc2)C(c2ccncc2)C(C#N)=C(SCC(=O)Nc2ccccc2)N1 (configuration not stated)	2	9753	1.0	-1	10	-5	-4
COc1ccc(S(=O)(=O)N2CCCC(C(=O)N3CCN(C)CC3)C2)cc1C (configuration not stated)	-4	2525	-9.0	.	.	-65	12
O=C(Cc1ccc(Cl)cc1Cl)Nc1cccc(S(=O)(=O)Nc2ccccc2F)c1	-1	2040	4.2	3	13	6	3
COc1ccc(OC)c(C(C)NC=O)c1 (configuration not stated)	2	11194	3.0	17	7	-3	7
Cc1cccc(N(C)C(=O)c2cnn(-c3ccccc3)c2C)c1	0	.	2.8	22	6	-44	7
Cc1cccc(NC(NC(=O)c2ccccc2[N+](=O)[O-])C(Cl)(Cl)Cl)c1 (configuration not stated)	2	7505	7.7	9	2	-9	14
Cc1cnn(C(=O)c2ccccc2Br)c1	-1	.	6.2	3	5	.	14
O=C(Nc1ccccc1O)c1cc2cc(Br)ccc2oc1=O	-8	3879	.	.	.	-113	.
CC(=O)Nc1cccc(/C(C)=N/NC(=O)c2c(-c3ccccc3Cl)noc2C)c1	10	2003	.	.	.	-22	.
O=C(NS(=O)(=O)Nc1ccccn1)c1c[nH]c2ccccc12	-12	4704	0.6	19	1	-27	-2
Cn1cc(-c2ccccc2C(=O)O)c(=O)c2cc(Cl)ccc21	-17	4073	0.8	5	13	-17	11
CC(=O)c1ccc(CC2SC(N)=NC2=O)cc1 (configuration not stated)	-4	3944	4.1	4	-10	2	14
CC(=NNc1nc(N)cc(Cl)n1)c1cccc([N+](=O)[O-])c1	.	.	5.6	3	13	.	0
NS(=O)(=O)c1ccc(CCNC(=O)c2cccc(S(=O)(=O)N3CCCC3)c2)cc1	.	4086	1.0	2	-1	3	6
Cc1c(C(=O)O)oc2c1/C(=N\O)CCC2	-4	2344	.	.	.	-48	.
COc1cccc(NC(=O)COC(=O)CCSc2ccccc2)c1	.	3853	0.6	-7	4	-11	-1
Cc1ccc(CN2CCN(Cc3cnc(N4CCOCC4)s3)CC2CCO)cc1 (configuration not stated)	-5	4708	2.4	3	-1	-45	2
Other entries
SMILES	BJeLR viability	Autofluor counter	Sa RN4220 lethal	Mtb hypoxia inh	Mtb hypoxia inh growth	PrP UTR inh	Sa ugtP lethal
CCOC(=O)CC1COCCN1C(=O)c1cc(COc2ccc(F)c(F)c2)on1 (configuration not stated)	1	5628	4.2	1	-5	-33	4
O=C(NC(=S)Nc1ccc(N2CCOCC2)cc1)c1cccc(Cl)c1	-7	2036	4.7	12	7	-22	93*
Cc1nnc(SCC(=O)Nc2ccc(Oc3ccccc3)cc2)n1N	-9	3371	-4.6	.	.	-25	9
O=C(Cn1c2c(sc1=O)C1c3ccccc3OCC1CS2)Nc1ccc(Cl)cc1 (configuration not stated)	-2	2383	-7.9	-1	1	-21	-11
CN1CCN(CC(=O)n2c3c(c4ccccc42)CCCC3)CC1	8	7905	4.5	7	7	-13	10
Cc1noc(C)c1S(=O)(=O)Nc1ccccc1Oc1ccccc1	3	5652	9.2	8	4	-2	-5
COc1ccc(NC(=O)CCS(=O)(=O)c2ccc3c(c2)oc(=O)n3C)cc1	3	5136	-4.4	-7	0	-25	-7
O=C(Nc1ccccc1C(F)(F)F)c1cc(-c2ccccc2O)on1	6	10120	4.2	1	9	-39	0
CC(C)(O)C#Cc1ccc(CN2CCC(CO)(CCc3ccccc3)CC2)cc1	-1	2988	2.6	4	3	1	9
O=C(Nc1ccc(N2CCN(C(=O)c3ccccc3F)CC2)cc1)c1ncn[nH]1	9	2261	1.7	3	2	2	6
COC(=O)c1c(O)cc(=O)n2c1CCCCC2	-9	4248	1.0	-2	-1	-7	-4
Cc1ccccc1C(=O)OCCCN=C1NS(=O)(=O)c2ccccc21	1	4550	1.4	.	.	-23	3
CCO[C@@H]1OC(C(=O)O)=C[C@H](c2ccc3c(c2)OCO3)[C@H]1CCCO	-10	3531	.	.	.	-17	.
CCCCNC(=O)CSc1nc2cc(OC)c(OC)cc2c(=O)n1Cc1ccc(OC)cc1	1	5446	1.0	4	5	-19	7
Cc1cc(C)c(C#N)c(Nc2cccc(C)c2C)n1	1	3646	8.0	19	9	-38	3
CCC(C(=O)Nc1ccccc1F)n1nc(C)c2c(C)n(-c3ccccc3)nc2c1=O (configuration not stated)	7	6023	-2.7	3	17	-4	0
COc1ccc(-c2oc(NC(=O)c3ccc(C)cc3)c(C#N)c2-c2ccc(OC)cc2)cc1	-9	2898	-8.7	.	.	-37	12
COc1ccc(NS(=O)(=O)c2cccc(C(=O)O)c2)cc1S(=O)(=O)N1CCOCC1	.	8829	-0.4	7	5	-9	1
O=C(Cn1c(NCCO)nc2ccccc21)c1cccs1	0	4941	3.2	.	.	-2	2
O=C(CSc1nc(C2CC2)nc2sc3c(c12)CCCC3)NCc1ccco1	12	8085	3.1	3	-4	-38	3

Entries of single compounds from above.
Record of Cc1cnn(C(=O)c2ccccc2Br)c1 → BJeLR viability: -1; Autofluor counter: .; Sa RN4220 lethal: 6.2; Mtb hypoxia inh: 3; Mtb hypoxia inh growth: 5; PrP UTR inh: .; Sa ugtP lethal: 14
Record of Cc1cc(C)nc(NC(=O)c2ccc(Cl)c(Cl)c2)n1 → BJeLR viability: 0; Autofluor counter: 2657; Sa RN4220 lethal: 0.2; Mtb hypoxia inh: .; Mtb hypoxia inh growth: .; PrP UTR inh: -15; Sa ugtP lethal: -1

(continued)
SMILES	BJeLR viability	Autofluor counter	Sa RN4220 lethal	Mtb hypoxia inh	Mtb hypoxia inh growth	PrP UTR inh	Sa ugtP lethal
Clc1ccc(-c2nc(Cc3ccccc3)no2)cc1	-1	2376	.	.	.	-62	.
O=C(Nc1ccc2c(c1)OCCO2)c1ccc(Cl)c(Cl)c1	-6	3095	0.0	5	5	-79	0
CC(C)CN1C(=O)C(=O)N(CC(=O)N2c3ccccc3NC(=O)CC2C)C1=O (configuration not stated)	.	?	3.1	-3	5	-15	2
O=S(=O)(NCCc1ccccc1)c1ccc(S(=O)(=O)N2CCCCC2)cc1	-2	8566	5.4	-8	6	-8	-5
Nc1c(C(=O)NCCN2CCOCC2)c2nc3ccccc3nc2n1-c1ccccc1	0	10621	3.0	15	4	-16	2
